Bioassay records from PubChem BioAssay.
Bead autofluor = counter-screen for toxin protease inhibitors: compound fluorescence; compound autofluorescence counterscreen, microsphere flow cytometry; hits give high values; fluorescence intensity (no concentration beside the values); actives 3.1% (n = 360,000);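 active = at least 3 SD above the mean of all compounds, about 16000 in these data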;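 note: 100 nL of 1 mM stock went into each well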
PrP 5UTR inh = suppresses PrP 5' UTR mRNA reporter expression | cell-based PrP 5' UTR mRNA reporter, plate reader | inhibition, % (concentration not given with the values) | actives 0.35% (n = 340,000);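 active = every replicate at 50% or more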;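 note: 0 = median of the neutral control wells; tested in H4 reporter cells; numbers are from one replicate; inactives centre near -14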
BJeLR viability = BJeLR cell viability loss; BJeLR (HRASV12) viability, CellTiter-Glo ATP luminescence, 48 h; reference of the scale not given here; inhibition, % (test concentration not listed); actives 0.17% (n = 300,000); AID 1554;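 active = replicate mean above 50%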;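 note: 50 nL library stock added to about 25 µL; numbers are from one replicate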
ugtP null kill = growth inhibition of S. aureus ugtP deletion strain | AID 1259309 | growth inhibition, % (no concentration beside the values) | S. aureus RN4220 ugtP deletion, OD600 growth, 16 h; some inactives read as strong as hits | actives 0.54% (n = 330,000);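 active = z-score under -3 and OD600 up to 0.15 on both plates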;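 note: plate controls were untreated wells for no effect and antibiotic for full effect; wells of about 80 µL received 100 nL stock; the first replicate is given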
RN4220 kill = kills Staphylococcus aureus RN4220 | actives 0.33% (n = 330,000) | AID 1259311 | inhibition, % (no concentration beside the values) | S. aureus RN4220 growth, OD600, 16 h;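 active = z-score of -3 or lower and OD600 up to 0.18 on both plates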;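 note: plate controls were untreated cells for no effect and reference antibiotic for full effect; stock transfer was 100 nL into about 80 µL; one replicate is shown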
Mtb hypoxia inh = Mtb hypoxia fluorescent reporter inhibition | M. tuberculosis hypoxia-regulated fluorescent reporter, fluorescence | fluorescence inhibition, % (concentration not given with the values) | actives 0.1% (n = 300,000) | AID 1159583;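 active = 35 to 45% if threefold the growth effect, above 45% if 1.5-fold the growth effect; inactive = the rest, general growth blockers included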;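 note: wells of about 50 µL received 100 nL stock; 0% = vehicle wells and 100% = reference inhibitor wells; whole bacteria with a GFP reporter of the hypoxia response; strong numbers were not always called active; many hits fall short of the cut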
Mtb hypoxia inh growth = recorded beside Mtb hypoxia inh, whose call it bears; growth inhibition, %; measured here: M. tuberculosis growth (absorbance);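 0% = vehicle and 100% = reference antibiotic; read after six days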
Numbers without * were called inactive; nt = no result given; & = joins results of further samples.

Order of values: Bead autofluor, PrP 5UTR inh, BJeLR viability, ugtP null kill, RN4220 kill, Mtb hypoxia inh, Mtb hypoxia inh growth
O=C(CSc1nnc2ccccn12)NCc1ccc2c(c1)OCO2
    2271, -20.6, -6.2, 1.6, 1.5, -1.7, -2.0
O=C(OCc1c(Cl)nc2sccn12)c1cc2c(s1)CCCC2
    4332, -9.0, -4.6, 0.5, -0.8, 12.5, 0.4
NC(=O)CCC(NS(=O)(=O)c1ccc(Cl)cc1)C(=O)NCc1ccccc1Cl (stereo unspecified)
    1679, 1.3, 2.3, 4.1, 4.6, 12.1, 0.6
COc1ccc(CCN2C(=S)N(c3ccc(Cl)cc3)C(=O)C2CC(N)=O)cc1OC (stereo unspecified)
    3660, -21.1, 3.6, 6.4, 2.2, 13.8, 7.0
COCCn1c(SCC(=O)Nc2ccc(OC)cc2)nnc1-c1ccoc1C
    3625, -21.2, -7.3, 5.1, 1.0, 14.6, 8.1
Cc1ccc(NS(=O)(=O)c2cc([N+](=O)[O-])ccc2NN=Cc2sc(N3CCOCC3)nc2-c2ccccc2)c(C)c1
    nt, nt, nt, -4.4, -5.0, -5.8, -15.0
O=C(CN1CCN(C(C(=O)Nc2cc(C(F)(F)F)ccc2Cl)c2ccccc2)CC1)NC1CC1 (stereo unspecified)
    3110, -8.0, nt, 1.3, 3.6, 0.8, -4.6
CCOc1ccc(N2CC(C(=O)Nc3nnc(C4CCCCC4)s3)CC2=O)cc1 (stereo unspecified)
    3495, -13.0, 0.5, 20.0, -4.7, 6.3, 3.9
O=C(Cc1cccc(C(F)(F)F)c1)OCN1C(=O)c2ccccc2C1=O
    5274, -14.3, -2.6, 4.0, 1.4, 13.2, 9.1
O=C(N/N=C/c1ccc(Cl)s1)C(O)c1ccccc1 (stereo unspecified)
    4422, -17.5, -8.4, nt, nt, nt, nt
Cc1ccc(-c2nn(-c3ccccc3)cc2C(=O)NCC(c2cccs2)N2CCOCC2)cc1 (stereo unspecified)
    4993, -12.7, 17.9, -4.0, -0.8, 7.6, -4.9
N#C/C(=C\c1ccc(OC(=O)c2ccccn2)cc1)C(N)=O
    2186, -22.4, 7.2, 9.6, 4.1, 8.9, 8.3
Cc1cc(OC(=O)c2cccc(F)c2)c([N+](=O)[O-])c(=O)[nH]1
    5508, -20.8, -2.7, 1.8, 0.6, -2.2, 0.6
COc1cc(C(=O)N(CCN(C)C)CC2CCCN(Cc3ccccc3F)C2)ccc1C (stereo unspecified)
    4224, -9.5, -1.8, 4.5, -3.6, 12.5, 7.5
FC(F)(F)c1cccc(Cc2noc(CN(Cc3ccccn3)CC3CCCO3)n2)c1 (stereo unspecified)
    4771, -9.9, 8.6, 5.1, 1.8, -3.1, 6.2
NNC(=O)c1ccc(O)cc1
    3443, -6.5, nt, 2.4, 3.9, 9.3, 4.4
COc1cccc(NC(=O)CS(=O)(=O)c2cn(CC(=O)N3CCOCC3)c3ccccc23)c1
    nt, -0.7, -0.4, 11.6, 2.0, 5.4, 4.5
CCOc1ccc2oc(C(=O)OCC(=O)N3C(C)CCCC3C)c(C)c2c1 (stereo unspecified)
    4382, -15.3, nt, 3.9, 5.7, 25.3*, 53.7*
COCc1nnc(NC(=O)C2CCN(C(=O)c3ccco3)CC2)s1
    3552, -9.5, -0.6, 5.2, -0.2, 9.3, 2.9
COc1ccc(-n2c(C)cc(/C=C3\C(=N)N4N=C(CC(=O)N5CCOCC5)SC4=NC3=O)c2C)c(OC)c1
    6080, -9.1, 10.2, -4.9, 1.8, 4.9, 9.9
CC(=O)N1CCCC(C(=O)c2ccc(Oc3ccccc3)cc2)C1 (stereo unspecified)
    4532, -6.9, 5.8, 11.8, 0.9, 14.6, 12.9
CCOc1ccc(N=C2NC(=O)CS2)cc1
    3162, -8.3, -0.5, 7.5, 4.1, -0.3, -3.0
COC(=O)CSc1nc(C)cc(C(F)(F)F)c1C#N
    3915, -21.3, 12.4, 4.8, 4.1, nt, nt
Nc1c(C(=O)NCc2ccc3c(c2)OCO3)c2nc3ccccc3nc2n1CCCN1CCOCC1
    11356, -11.1, 12.3, -20.6, 0.3, 10.3, 9.7
CC(=O)c1c(O)cc(=O)oc1-c1ccc(C)cc1
    5485, -17.1, 0.2, 9.9, 1.9, 13.2, -0.3
Cc1cc(NN=Cc2ccccc2)nc(-c2ccccc2O)n1
    nt, nt, nt, 52.7, 67.4, -1.7, -0.8
COc1cc(OC)cc(OCC(O)Cn2ccnc2C)c1 (stereo unspecified)
    3804, -21.0, 2.1, -1.3, 4.6, -0.4, -1.6
CSc1ccc(C(=O)C2CCCN(C(=O)c3cccnc3SC)C2)cc1 (stereo unspecified)
    3618, -20.9, 4.1, 6.2, 2.2, 3.2, -4.5
CSCCC(NC(=O)COc1ccccc1)C(=O)N1CCN(c2ccccc2O)CC1 (stereo unspecified)
    6186, -71.0, 8.2, 2.1, 3.9, -6.4, -3.9
Cc1nc2ccccc2nc1CSc1nncs1
    9182, -17.9, -0.7, 0.4, 0.0, 2.9, 11.1
CC(=O)Oc1ccc(-c2csc(Nc3ccc(S(N)(=O)=O)cc3)n2)cc1
    3774, -14.9, -3.2, 7.0, 12.1, 10.9, 13.6
COc1ccc(OC)c(C2CC(c3ccccc3)=NN2C(=S)Nc2ccccc2)c1 (stereo unspecified)
    5713, -40.2, 37.9, -7.4, 2.3, 8.9, 6.9
OC1/C(=C/c2ccc(F)cc2)N2CCC1CC2 (stereo unspecified)
    1898, -14.5, 0.3, 6.6, 5.5, 10.8, -1.4
O=c1[nH]cnc2c1sc(=S)n2-c1ccccc1
    22624*, -26.0, 3.1, 10.8, 2.9, 3.6, 5.6
COc1ccc(N2CCN(C(=O)C3CCN(C(=O)c4ccc([N+](=O)[O-])cc4)CC3)CC2)cc1
    5416, -14.4, -2.7, -1.6, 2.3, -4.4, 8.3
O=C(Cc1c(F)cccc1Cl)NCCc1c[nH]c2ccccc12
    3647, -5.8, 2.6, 2.5, 8.3, -3.0, -0.8
Cc1cccc(NC(=O)CSCc2cc(=O)n3ccsc3n2)c1C
    4438, -11.1, 3.3, 6.7, 4.4, 4.7, -0.4
O=C(CN1CCCC1)Nc1ccc(NC(=O)Nc2ccccc2)cc1
    3107, -60.8, -7.3, -5.8, -18.2, 25.0, -11.2
O=C(CSc1ncn[nH]1)N1CCN(c2nnc(-c3ccccc3)c3ccccc23)CC1
    5264, -36.1, -1.3, 1.4, 2.9, 12.5, 6.5
O=C(COc1ccc(Cl)cc1)N1CCN(S(=O)(=O)c2ccc(Cl)cc2)CC1
    11179, 7.3, -13.2, -10.6, -2.2, -5.3, 14.3
COc1ccc(C2C(C(=O)OCC(=O)Nc3ccc(C)cc3)CCC(=O)N2c2ccc(OC)cc2)cc1 (stereo unspecified)
    4507, -18.7, -4.1, 2.0, -0.4, nt, nt
Nc1ccccc1Cl
    4359, -15.7, nt, 9.8, 2.9, 8.9, -0.4
Oc1c(C(c2ccccc2Cl)N2CCCC2)ccc2cccnc12 (stereo unspecified)
    4121, -19.7, -10.4, -8.4, 13.1, 10.3, 8.5
CCC(Sc1nc2ccccc2c(=O)[nH]1)C(=O)O (stereo unspecified)
    10067, -19.0, -9.6, 0.9, 4.9, 16.2, 7.0
COc1cc(NC(=O)CCC(=O)Nc2ccc3nc(N4CCOCC4)cc(C)c3c2)cc(OC)c1OC
    2769, -5.4, 6.0, -2.9, -3.7, 3.2, 8.1
Cc1ccc(C)c2[nH]c(=O)c(CN(CCN3CCOCC3)Cc3nnnn3CC3CCCO3)cc12 (stereo unspecified)
    5577, -21.6, -6.4, -7.3, 0.1, 1.0, 7.6
CC(C)CN1CCC(=O)N(CCO)CC1
    3845, -15.2, 2.8, 3.7, 5.9, -5.3, -0.9
CCOc1ccc(N(CC(=O)NC2CC3CCC2C3)S(=O)(=O)c2ccccc2)cc1 (stereo unspecified)
    6004, -9.5, -6.0, nt, nt, nt, nt
O=c1oc2ccccc2c(Nc2ccccc2O)c1[N+](=O)[O-]
    4751, -8.0, -2.9, -2.9, 6.6, nt, nt
Cc1cccc(OCC(O)Cn2ccnc2C)c1 (stereo unspecified)
    3735, 7.4, -25.0, 9.2, 1.8, 0.7, 2.0

Quoted at random: 6 records from the list.
Order of values: Bead autofluor, PrP 5UTR inh, BJeLR viability, ugtP null kill, RN4220 kill, Mtb hypoxia inh, Mtb hypoxia inh growth
Cc1cccc(OCC(O)Cn2ccnc2C)c1 (stereo unspecified)
    3735, 7.4, -25.0, 9.2, 1.8, 0.7, 2.0
COc1cc(NC(=O)CCC(=O)Nc2ccc3nc(N4CCOCC4)cc(C)c3c2)cc(OC)c1OC
    2769, -5.4, 6.0, -2.9, -3.7, 3.2, 8.1
O=c1oc2ccccc2c(Nc2ccccc2O)c1[N+](=O)[O-]
    4751, -8.0, -2.9, -2.9, 6.6, nt, nt
CCOc1ccc(N(CC(=O)NC2CC3CCC2C3)S(=O)(=O)c2ccccc2)cc1 (stereo unspecified)
    6004, -9.5, -6.0, nt, nt, nt, nt
Oc1c(C(c2ccccc2Cl)N2CCCC2)ccc2cccnc12 (stereo unspecified)
    4121, -19.7, -10.4, -8.4, 13.1, 10.3, 8.5
COc1ccc(C2C(C(=O)OCC(=O)Nc3ccc(C)cc3)CCC(=O)N2c2ccc(OC)cc2)cc1 (stereo unspecified)
    4507, -18.7, -4.1, 2.0, -0.4, nt, nt

Further compounds follow.
Order of values: Bead autofluor, PrP 5UTR inh, BJeLR viability, ugtP null kill, RN4220 kill, Mtb hypoxia inh, Mtb hypoxia inh growth
FC(F)Sc1ccc(-n2cc(-c3ccccc3)[n+]3c2CCC3)cc1
    2756, -35.5, 7.5, 5.6, 3.3, -6.9, -10.8
COc1ccc(-n2nc(C(=O)NCC(=O)N3CCN(c4ccccc4)CC3)c3ccccc3c2=O)c(OC)c1
    3688, -30.9, -5.4, 7.6, 6.8, 19.3, 4.1
Cc1cc(NC(=O)c2ccc(Cl)cc2Cl)n(CCC#N)n1
    4241, -5.4, 1.7, 11.6, -0.5, 11.8, 2.9
O=C(c1cccc(NS(=O)(=O)c2ccc(F)c(F)c2)c1)N1CCN(Cc2ccccc2)CC1
    2096, -15.7, -6.4, 4.5, -2.6, 6.3, 11.7
Cc1ccc(CN(c2ccc(C(=O)NCC3CCCO3)cc2)S(C)(=O)=O)cc1 (stereo unspecified)
    4509, -24.2, -1.2, -12.1, -1.9, -13.8, 5.5
CSc1ccccc1NC(=O)Nc1cccc(F)c1
    2526, -33.4, 1.7, 4.4, 1.7, -4.4, -25.1
CC(=O)c1cccc(NC(=O)CN(C)S(=O)(=O)c2ccc3c(c2)CC(C)N3C(C)=O)c1 (stereo unspecified)
    4940, -4.6, 2.2, 3.7, 4.6, 2.7, 7.1
CCC1Nc2ncnc(N3CCCCC3)c2N(Cc2ccccc2)C1=O (stereo unspecified)
    3715, -10.8, -1.3, 0.1, 9.3, -7.0, -5.2
COc1ccccc1-c1nc(SCC(=O)N2CCOCC2)n[nH]1
    3603, -30.5, -1.8, 12.5, 3.5, -5.0, 18.1
COC(=O)c1ccc(NC(=O)CCN2CCOCC2)cc1
    2972, 1.3, -6.9, 2.6, 1.4, -0.7, 2.0
Oc1ccc(NC(=S)Nc2ccccc2)cc1
    3122&2382, -4.9&-4.7, -16.5&8.6, 2.9, 2.1, 4.0, 7.0
CCC(C)(C)NC(=O)C(c1sccc1C)N(Cc1ccco1)C(=O)c1csnn1 (stereo unspecified)
    5598, -7.3, 7.5, 1.5, 3.4, 12.4, 12.1
O=C(c1ccccc1-c1nc2ccccc2[nH]1)N1CCOCC1
    4804, -3.0, 11.2, 4.0, 0.8, nt, nt
CCc1cc(C)cc(OCCOc2ccccc2C=NNC(C)=O)c1
    nt, nt, nt, 5.7, 37.7, 4.8, -2.5
CN(C)CC(=O)Nc1ccc(Oc2ccc(Cl)cc2)cc1
    2713, -3.6, 2.7, 3.5, 0.6, 12.7, 3.6
CC(=O)NC(Cc1cccc(F)c1)C(=O)NC1CCN(C(=O)Nc2ccccc2)CC1 (stereo unspecified)
    4652, -21.4, -10.5, 1.8, 2.0, -14.5, -1.8
O=C(NC1CC1)C1=C[C@@H](c2ccc(Br)cc2)C[C@@H](OCc2ccc(CO)cc2)O1
    4226, -20.4, 8.7, nt, nt, nt, nt
Cc1ccccc1-n1c(SCC(=O)NCC2CCCO2)nnc1-c1ccncc1 (stereo unspecified)
    3876, -16.6, nt, 5.6, 1.3, -1.8, 1.5
Cc1nc(S/C(=C/c2ccc(-c3ccc(Cl)cc3)o2)C(=O)O)n[nH]1
    2495, -3.6, 1.0, -12.7, -6.5, 0.8, 6.6
